Mtb hypoxia rep – inhibitors of hypoxia-regulated fluorescent reporter in Mycobacterium tuberculosis; M. tuberculosis hypoxia-regulated fluorescent reporter, fluorescence; fluorescence inhibition, % (test concentration not listed); hit rate 0.1% among 300,000; AID 1159583;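 active means 35 to 45% if threefold the growth effect, above 45% if 1.5-fold the growth effect; inactive means the rest, general growth blockers included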;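 further: wells of about 50 µL received 100 nL stock; 0% = vehicle wells and 100% = reference inhibitor wells; whole bacteria with a GFP reporter of the hypoxia response; strong numbers were not always called active; many hits fall short of the cut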
ugtP null kill – growth inhibition of S. aureus ugtP deletion strain | growth inhibition, % (concentration not given with the values) | hit rate 0.54% among 330,000 | S. aureus RN4220 ugtP deletion, OD600 growth, 16 h; some inactives read as strong as hits;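 active means z-score under -3 and OD600 up to 0.15 on both plates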;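 further: plate controls were untreated wells for no effect and antibiotic for full effect; wells of about 80 µL received 100 nL stock; the first replicate is given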
BJeLR lethal – BJeLR cell viability loss. BJeLR (HRASV12) viability, CellTiter-Glo ATP luminescence, 48 h; reference of the scale not given here. inhibition, % (test concentration not listed). hit rate 0.17% among 300,000. AID 1554;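 active means replicate mean above 50%; inconclusive means above 50% but judged a plate artefact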;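 further: 50 nL library stock added to about 25 µL; numbers are from one replicate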
PrP UTR inh – inhibition of PrP 5' UTR reporter expression; inhibition, % (test concentration not listed); AID 488862; cell-based PrP 5' UTR mRNA reporter, plate reader; hit rate 0.35% among 340,000;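 active means every replicate at 50% or more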;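 further: 0 = median of the neutral control wells; tested in H4 reporter cells; numbers are from one replicate; inactives centre near -14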
Bead autofluor – flagged as autofluorescent in microsphere protease counterscreen | compound autofluorescence counterscreen, microsphere flow cytometry; hits give high values | fluorescence intensity (no concentration beside the values) | hit rate 3.1% among 360,000 | AID 624483;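 active means at least 3 SD above the mean of all compounds, about 16000 in these data; inconclusive means too few beads counted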;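 further: 100 nL of 1 mM stock went into each well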
RN4220 kill – S. aureus RN4220 growth inhibition; OD600, 16 h; AID 1259311; hit rate 0.33% among 330,000; inhibition, % (concentration not given with the values);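 active means z-score of -3 or lower and OD600 up to 0.18 on both plates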;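 further: plate controls were untreated cells for no effect and reference antibiotic for full effect; stock transfer was 100 nL into about 80 µL; one replicate is shown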
Mtb hypoxia rep growth – further read-out of Mtb hypoxia rep, marked with its call; growth inhibition, %; measured here: M. tuberculosis growth (absorbance);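 0% = vehicle and 100% = reference antibiotic; read after six days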
An asterisk follows results filed as active; ? = inconclusive; · = no result given.

Every second line gives: Mtb hypoxia rep | Mtb hypoxia rep growth | ugtP null kill | BJeLR lethal | PrP UTR inh | Bead autofluor | RN4220 kill
- COc1ccc(/C=C2/SC(=S)N(CCC(=O)O)C2=O)cc1
    5 | 3 | -1 | 24 | 63* | 21113* | 9.0
- CC(=O)OC1C=COC(C)C1OC(C)=O (configuration not stated)
    4 | 0 | -3 | · | · | · | 5.5
- Cc1oc(-c2ccccc2)nc1CC(=O)O
    17 | 9 | -1 | -8 | -16 | 3825 | 1.4
- Cc1ccc(N(CC(=O)NCc2ccco2)C(=O)CCC(=O)Nc2ccccn2)c(C)c1
    -5 | 8 | 8 | -11 | -13 | 5568 | -0.4
- O=C(Nc1nnc(S(=O)(=O)N2CCCCCC2)s1)c1ccc(Br)cc1
    6 | 1 | 17 | 7 | -12 | 4504 | 15
- COc1ccc(C)c2sc(NC(=O)CCS(=O)(=O)c3ccccc3)nc12
    4 | -5 | -2 | 11 | -15 | 7075 | 0.2
- CCOc1ccc(NC(=O)CCn2cccc2)cc1
    15 | 12 | 3 | 10 | -7 | 3064 | 5.1
- COc1ccc(S(=O)(=O)N2CCN(C(=O)c3sccc3-c3ccccc3)CC2)cc1
    11 | 5 | 1 | -3 | -19 | 5856 | 2.8
- Cc1ccc(S(=O)(=O)N2CCOCC2)cc1C(=O)OCC(=O)NC1CCCC(C)C1C (configuration not stated)
    -1 | 2 | 0 | · | -12 | 9394 | 1.1
- O=C1CC(C(=O)N2CCN(c3ccccc3)CC2)CN1Cc1ccccc1 (configuration not stated)
    -12 | 0 | 2 | · | -4 | 7931 | 2.4
- O=C(CCn1ccc2cc(S(=O)(=O)N3CCCC3)ccc21)NCc1ccccc1
    -10 | -1 | 2 | -8 | -8 | ? | 2.8
- COc1ccc(NC(=O)c2ccccc2[N+](=O)[O-])cc1OC
    6 | 3 | 10 | -13 | -19 | 7404 | 1.7
- COc1ccc(OCCCC(=O)Nc2cccc(S(=O)(=O)N3CCCCCC3)c2)cc1
    0 | -1 | 7 | · | -7 | 2679 | 6.1
- Cc1c(C)c2c(OCC(=O)NCC(C)C)cc3c(c2oc1=O)CCC(C)(C)O3
    -13 | 4 | -4 | 5 | -40 | 3723 | 0.2
- COC(=O)C1=C(C)C(c2ccc(OC)cc2)NC(=O)N1 (configuration not stated)
    5 | -6 | -2 | 0 | -14 | 2537 | 2.4
- Cc1ccc(-c2csc(NCCn3c(-c4ccncc4)nc4cc(C(F)(F)F)ccc43)n2)cc1
    7 | 5 | 64 | · | -8 | 2975 | 94*
- O=C(CCS(=O)(=O)c1cccc2nsnc12)N1CCN(c2ccccc2F)CC1
    6 | 7 | -2 | -1 | 2 | 9254 | 2.2
- COc1ccccc1N1CCN(S(=O)(=O)c2ccc(-c3cnc(C4CC4)o3)cc2)CC1
    -5 | -3 | 0 | 6 | -27 | 5636 | 0.7
- O=C(NCc1nnc(SCC(=O)N2CCN(c3ccccc3)CC2)o1)c1c(F)cccc1F
    -8 | -9 | -3 | 10 | -5 | 4545 | 2.4
- CN1CC(C(=O)c2cccc(C(F)(F)F)c2)C(c2ccc(Cl)cc2)C1 (configuration not stated)
    8 | 5 | 3 | -4 | -7 | 3949 | 0.5
- C/C(=N/NC(=O)CNC(=O)COc1cccc(C)c1)c1ccco1
    · | · | · | -3 | 0 | 4449 | ·
- N#CCC(=O)NN=Cc1ccc(OC2CSC2)cc1
    3 | 14 | 7 | · | · | · | 1.3
- O=C(NN=Cc1c[nH]c2ccccc12)c1ccccc1Cl
    16 | 12 | 1 | · | · | · | 4.3
- O=[N+]([O-])c1ccc(CSC2=NCCN2)cc1
    8 | 3 | 3 | -6 | -19 | 3265 | 3.9
- COC(=O)C1CCN(C(=O)c2ccc(OC3CCN(Cc4ccccn4)CC3)cc2)CC1
    12 | 3 | 5 | 1 | -2 | 4055 | 6.4
- C/C(=N\NC(=O)Cn1nc(C)c([N+](=O)[O-])c1C)c1ccc(O)cc1
    · | · | · | 3 | -13 | 1896 | ·
- COC(=O)CCNC(=O)CCc1ccc(S(=O)(=O)N2CCCCCC2)cc1
    0 | 6 | 2 | · | -2 | 3453 | 1.8
- Cc1ccc(Nc2nc(-c3c(C)nc4ccccn34)cs2)cc1
    7 | 13 | 33 | 32 | 59* | 11388 | 46
- CCn1c2ccccc2c2nnc(SCC(=O)NC3CCS(=O)(=O)C3)nc21 (configuration not stated)
    8 | 13 | 5 | -3 | -22 | 2459 | 3.5
- Cc1ccc(C(C)C)c(OCC(=O)N/N=C/c2ccc(S(=O)(=O)O)o2)c1
    · | · | · | 1 | -25 | 6092 | ·
- COC(=O)c1ccc(C)c(NC(=O)c2nn(C)c(=O)c3ccccc23)c1
    5 | -2 | -1 | 6 | -11 | 22678* | 1.3
- COc1cc(OC)cc(C(=O)O/N=C(\N)c2ccccn2)c1
    -7 | 10 | -5 | -3 | · | 5925 | 1.5
- N#Cc1ccsc1NC(=O)c1cnccn1
    3 | -1 | 0 | -2 | -65 | 4355 | -1.0
- CC(=O)Nc1ccc(NC(=O)C/C(C)=N/NC(=O)C(=O)N2CCCC2)cc1
    · | · | · | 8 | -36 | 4221 | ·
- CCOC(=O)c1ccc(NC(=O)C2CCCN(c3cnccn3)C2)cc1 (configuration not stated)
    5 | -1 | 8 | 5 | -21 | 5087 | 4.7
- O=C1CC[C@@H](CN(Cc2ccccn2)Cc2nc(-c3ccc(C(F)(F)F)cc3)no2)N1
    2 | -5 | -1 | 3 | -28 | 4279 | -0.5
- COc1ccccc1NC(=O)COC(=O)c1cc([N+](=O)[O-])ccc1N1CCCC1
    11 | 8 | 5 | · | -15 | 8632 | 5.2
- O=C(Nc1nc(-c2ccc(Cl)cc2)cs1)c1cccnc1
    9 | 22 | -1 | 8 | -16 | 4040 | 3.6
- O=C(NCc1cccnc1)c1ccccc1NS(=O)(=O)c1ccc(F)cc1F
    -2 | 4 | 10 | 10 | -21 | 4881 | 7.6
- Fc1ccccc1CNC(=S)NCc1ccc(Cl)cc1
    10 | 11 | -6 | -1 | -21 | 6279 | -7.7
- COc1ccc(CC(C)N2CCN(c3ccccc3)CC2)cc1OC (configuration not stated)
    -3 | 7 | 0 | -5 | -16 | 9256 | 0.9
- O=C1OC(c2ccccc2)=C/C1=C\N1CCOCC1
    9 | -4 | -2 | -3 | -36 | 3853 | 0.6
- Nc1nccnc1C(=O)OCC(=O)NNC(=O)c1ccccc1
    6 | 9 | -2 | -7 | -17 | 5184 | 4.2
- COc1ccc(-c2nn(CCC#N)cc2C(=O)Nc2cccc([N+](=O)[O-])c2)cc1OC
    -4 | 1 | 2 | 5 | -12 | 4398 | 1.7
- COc1cc(OC)c(NC(=O)Cc2cccs2)cc1Cl
    1 | 21 | 5 | 0 | -9 | 2740 | -0.1
- CCOc1ccc(C(=O)NCC(=O)OCC(=O)Nc2cccc(S(=O)(=O)N3CCCC3)c2)cc1
    9 | 7 | 20 | -3 | -12 | 4394 | 3.3
- O=C(Cc1ccc(Cl)c(Cl)c1)N/N=C/c1cccnc1
    · | · | · | 0 | -7 | 5673 | ·
- C=CCn1c(SCC(=O)Nc2nccs2)nnc1-c1cc2cccc(OC)c2o1
    6 | -2 | 9 | -8 | -3 | 8273 | 8.6
- N#Cc1c(F)cccc1N1CCN(Cc2ccc3c(c2)OCO3)CC1
    6 | -8 | 6 | -6 | -13 | 3779 | -0.6
- CN1CCN(c2nc3c(c(=O)[nH]c(=O)n3C)n2Cc2ccccc2F)CC1
    16 | 11 | 7 | -15 | -31 | 3843 | 10
- C/C=C(\C)C(=O)Nc1cccc(C2=NOC3(C2)C[C@@H](C(N)=O)N(C(=O)c2ccccc2C(=O)c2ccccc2)C3)c1 (some centres not stated)
    · | · | · | -14 | -19 | 4563 | ·
- O=C(C[N+]12CCC(CC1)C(O)C2)c1ccc(Br)cc1 (configuration not stated)
    2 | -7 | 5 | -6 | -19 | 3099 | -0.8
- CCOc1cccc(C(=O)NC(=S)Nc2cccc(NC(=O)c3ccccc3Cl)c2)c1
    10 | 2 | -19 | -4 | -13 | 2073 | 4.9
- COc1cc(OC)cc(C(=O)Nc2ccc(NC(=O)c3ccco3)c(Cl)c2)c1
    -1 | 0 | 5 | 22 | 5 | 3120 | -11
- CN1CCN(C(=O)c2ccc(Cl)cc2)CC1
    3 | 19 | 9 | -1 | -3 | 3753 | 0.2
- COCC(C)n1c(C)cc(C(=O)COC(=O)c2cnc(Cl)c(Cl)c2)c1C (configuration not stated)
    6 | 2 | -1 | · | -4 | 3017 | 12
- CC(OCC(O)CNCC1COc2ccccc2O1)c1ccc(Cl)cc1 (configuration not stated)
    7 | 3 | -2 | -2 | -9 | 4498 | -0.5
- CCC(CC)NC1CCCCC1OC (configuration not stated)
    7 | 4 | 3 | 2 | -11 | 2267 | 0.8
- Cc1cc(C)c(OCCCCN2CCC(C)CC2)c(Br)c1
    5 | -1 | 7 | 4 | -6 | 4170 | 1.8
- c1ccc(OCCCn2nnc(-c3cccnc3)n2)cc1
    14 | 2 | 7 | 12 | -18 | 12998 | 3.9

Looked up above.
Reading of `CN1CCN(c2nc3c(c(=O)[nH]c(=O)n3C)n2Cc2ccccc2F)CC1` in Mtb hypoxia rep: 16
Reading of `O=C(C[N+]12CCC(CC1)C(O)C2)c1ccc(Br)cc1` (configuration not stated) in BJeLR lethal: -6
Reading of `COc1cc(OC)c(NC(=O)Cc2cccs2)cc1Cl` in RN4220 kill: -0.1

Later entries
Every second line gives: Mtb hypoxia rep | Mtb hypoxia rep growth | ugtP null kill | BJeLR lethal | PrP UTR inh | Bead autofluor | RN4220 kill
- O=C(COC(=O)c1cnccn1)c1ccc([N+](=O)[O-])cc1
    10 | -1 | 4 | -3 | -27 | 3924 | 5.0
- Cc1cc([N+](=O)[O-])nn1Cc1ccccc1F
    -9 | 6 | -5 | 12 | -13 | 2525 | 1.4
- CCC(=O)NC(=S)Nc1ccccc1OC
    · | · | -17 | 5 | -8 | 2698 | -7.5
- Cc1ccc(NC(=O)COC(=O)CCC(=O)c2cccs2)cc1C
    3 | -4 | 4 | 4 | -6 | 4250 | 4.5
- COc1ccc(C(C)=O)cc1CN1C(=O)C(C)N(c2ccc(C)cc2)C1=O (configuration not stated)
    11 | 10 | -10 | 2 | -11 | 18676* | 8.2
- O=C(CN(CC1CCCO1)C(=O)CNS(=O)(=O)c1ccc(Cl)cc1)NC1CCCCC1 (configuration not stated)
    -1 | 2 | 8 | -9 | -15 | 5576 | 2.2
- c1coc(Cn2c(SCc3nc4ccccc4[nH]3)nnc2-c2cccs2)c1
    8 | 8 | -1 | 10 | -4 | 18667* | 4.3
- CC(=O)C1=C(O)C(=O)N(CCN2CCOCC2)C1c1ccccc1 (configuration not stated)
    9 | -3 | 3 | -7 | -25 | 11735 | 0.3
- Cc1cc(NS(=O)(=O)c2ccc(NC(=O)c3ccc(Cl)cc3Cl)cc2)no1
    4 | 17 | 15 | -1 | -8 | 3683 | 2.5
- CC(=NNC(=O)c1cccnc1)c1cc(C)oc1C
    12 | 7 | 9 | · | · | · | -0.5
- COc1ccccc1NC(=O)CSc1nnc(NC(=O)c2ccco2)s1
    14 | 10 | 3 | -2 | -14 | 5729 | -6.3
- CN(C)c1ccc(S(=O)(=O)NCC(=O)NCc2ccccc2)cc1[N+](=O)[O-]
    16 | 12 | 3 | 3 | -16 | 3161 | -0.7
- COc1ccc(S(=O)(=O)N2CCCCC2)cc1C(=O)Nc1cc(C)on1
    -2 | 1 | 6 | 6 | -15 | 5931 | 6.1
- CCC(C)(C)NC(=O)C(c1cccs1)N(C(=O)c1ccn[nH]1)c1ccccc1 (configuration not stated)
    6 | 12 | -5 | 13 | 1 | 2322 | 8.3
- O=C(Nc1ccc(F)cc1)C(=O)C1C(=O)Nc2ccccc21 (configuration not stated)
    3 | 3 | -6 | -3 | -18 | 4990 | 4.7
- Cc1ccc2nc(CSc3nc(C)cc(C)c3C#N)[nH]c2c1
    25 | 21 | -13 | -4 | -205 | 21126* | 11

High-throughput results as filed in PubChem BioAssay.
